TAR Tat displ: TAR RNA-Tat peptide displacers, HIV-1, primary screen, biochemical, FRET, FAM/TAMRA-labeled Tat; AID 1259389, 2018; z-score (test concentration not listed); 100,000 compounds, 0.6% hits; HIV-1 TAR RNA, Tat peptide displacement FRET; stronger effect = higher value;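 note: score is relative to mean and SD of negative controls; some compounds called inactive have numbers as strong as hits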
CDC25B-CDK2 inh: primary biochemical HTRF screen for blockers of M-phase inducer phosphatase 2 binding to CDK2/cyclin A | P30305+P24941 | z-score (test concentration not listed) | 94,000 compounds, 0.72% hits | HTRF CDC25B-CDK2/CyclinA binding, anti-His/anti-Flag; stronger effect = higher value;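 note: score is relative to mean and SD of negative controls; strong numbers were not always called active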
The depositor's hits bear a star; x = no result given.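 Rule for the calls: active = z-score from 3 up in half or more of its runs; inactive = the rest.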

SMILES	TAR Tat displ	CDC25B-CDK2 inh
COc1cccc(NC(=O)N(Cc2cn(C)c3ccccc23)C2CCCCC2)c1	x	-1.6
C=CCNC(=O)c1nn(-c2ccc(F)cc2)nc1CO	-0.03	0.25
Cc1c(NS(=O)(=O)c2ccc3c(c2)CCCC3)c(-n2cnnc2)nn1C	0.45	1
COc1ccc(Nc2c(-c3cccc(O)c3)nc3ncccn23)cc1	0.6	-6.1
Cc1cc(C)cc(NC(=O)c2sc(=S)n3c2[nH]c(=O)c2ccccc23)c1	1.7	x
Fc1ccccc1C(NC1CCCCC1)c1nnc(-c2ccccc2)o1 (centres undefined)	0.16	-0.17
COC(=O)c1sccc1NC(=O)C(=O)Nc1ccc2nc3n(c(=O)c2c1)CCCCC3	2.7	-2.1
O=C(Nc1ccc2c(c1)OCO2)C1CC(c2ccc(F)cc2)=NO1 (centres undefined)	0.17	-0.19
Brc1cccc(-c2nnc3n2CCCCC3)c1	x	-0.33
O=C(Nc1ccc(Br)cc1F)c1cnn(-c2cccc(F)c2)c1C1CCNCC1	0.79	x
O=C(C1COc2cc(S(=O)(=O)N3CCN(c4ccccc4F)CC3)ccc2O1)N1CCCCC1 (centres undefined)	1.1	x
Cn1c(CN2CCCC2)nc2cc(NS(=O)(=O)c3ccc(Cl)cc3)ccc21	0.03	-2.2

By substructure, the entries above containing an aryl methoxy group (two)
SMILES	TAR Tat displ	CDC25B-CDK2 inh
COc1cccc(NC(=O)N(Cc2cn(C)c3ccccc23)C2CCCCC2)c1	x	-1.6
COc1ccc(Nc2c(-c3cccc(O)c3)nc3ncccn23)cc1	0.6	-6.1

(further entries)
SMILES	TAR Tat displ	CDC25B-CDK2 inh
CCCN(CCC)CCNC(=O)c1noc2c1CSc1ccccc1-2	1.6	-2.1
Cc1cc(Nc2cc(C(=O)O)ccc2C)nc(C)n1	0.58	-0.44
O=C(C1CC(c2c(F)cccc2Cl)=NO1)N1CCCC1 (centres undefined)	-2	-2.4
COCCCN(CCS(=O)(=O)N1CCNCC1)S(=O)(=O)c1ccccc1	1.3	x
N#CCCS(=O)(=O)c1ccccc1F	x	-1.2
O=C(Nc1ccc(F)cc1)/C(=C/c1cccs1)NC(=O)c1ccccc1	x	0.43
c1ccc2c(-c3csc(-c4ccc5c(c4)OCCO5)n3)coc2c1	x	-2.4
CCOC(=O)Cc1c(C)nc(N)[nH]c1=O	1.1	2.1
CCOc1ccc(/C(O)=C2/C(=O)C(=O)N(CCN(C)C)C23C(=O)N(C)c2ccccc23)cc1 (centres undefined)	-0.08	0.72
Cc1c(S(=O)(=O)c2ccc(Cl)cc2)csc1C(=O)N/N=C/c1cccs1	x	-2
CCOc1ccccc1-c1nn2c(C)nnc2s1	-0.64	-0.93
CCOC(=O)C1CCN(c2ncnc3sc4c(c23)CCCC4)CC1	0.54	0.7
CCCc1cnc(N2CCN(c3ncc(CCC)cn3)CC2)nc1	x	-0.54
CN(C)CCN(C(=O)CCSc1ccccc1)c1nc2cc3c(cc2s1)OCO3	0.87	x
O=C(Nc1ccccn1)c1ccc(CNc2c(N3CCCC3)c(=O)c2=O)cc1	-0.48	-1.5
NC1=NC(c2cccc(Br)c2)n2c(nc(=O)c3ccccc32)N1 (centres undefined)	-1.3	-1
O=C(Cn1ncc2c(=O)oc3ccccc3c21)NCC1COc2ccccc2O1 (centres undefined)	1	0.41
CCSc1nc(-c2cccc(C)c2)nc2c1Cc1c(CO)cnc(C)c1O2	1.7	x
O=C(NCCc1ccc(Cl)cc1)C1CCC(CNc2c(N3CCCC3)c(=O)c2=O)CC1 (centres undefined)	1.6	-0.76
CCOc1ccc(N2C(=O)c3ccccc3C2Nc2cccc(SC)c2)cc1 (centres undefined)	0.52	1
CCC1Nc2c(sc3nc(C)cc(COC)c23)C(=O)N1C1CCCCC1 (centres undefined)	2.7	0.45
S=c1[nH]nc(-c2ccccc2Cl)o1	x	-5.4
CN1CCN(CCCNC(=O)C2CCN(c3ccc(-c4cccs4)nn3)CC2)CC1	0.16	x
CN(CC(=O)N1CCCCC1)S(=O)(=O)c1ccc2[nH]c(=O)oc2c1	1.4	x
CN(C)c1cc(-c2ccccc2)nc(N)n1	1.6	-1.6
Cn1c(C(=O)N2CCC(C(=O)NCc3ccc4c(c3)OCO4)CC2)cc2sccc21	x	-1.8
CCCC(=O)OCc1cc(=O)n2ccsc2n1	0.79	x
CCCCN(C)c1ncnc2onc(-c3ccc(Cl)cc3)c12	1.7	-1.5
CCOC(=O)C1=C(C)N=C2c3ccccc3C(=O)C2C1c1ccc(Cl)cc1 (centres undefined)	0.24	0.07
NC(=O)c1c(-c2ccccc2)noc1N	-0.65	-2
O=C(CSc1nc(=O)n(CCN2CCOCC2)c2c1CCC2)Nc1ccccc1F	0.77	x
O=C1CCc2cc(S(=O)(=O)N3CCCC3C(=O)NC3CCCCCCC3)ccc2N1 (centres undefined)	x	-2.2
Cn1c(Cn2c(=O)sc3ccccc32)nnc1SCC(=O)NCc1ccccc1Cl	x	-0.85
CCS(=O)(=O)c1nc(S(=O)(=O)c2ccc(C)cc2)c(NCc2cccnc2)s1	-1.2	0.46
CCSc1nnc2c(n1)OC(c1ccc(OC)c3ccccc13)Nc1ccccc1-2 (centres undefined)	x	-2.1
CC(C)C(NC(=O)C(N)C(C)O)C(=O)O (centres undefined)	0.47	x
Cc1cc(NC(=O)C2CC3CCCN3C23C(=O)Nc2ccccc23)ccc1Br (centres undefined)	-0.39	x
C/C(=N\OCC(=O)N=Nc1c(O)n(CN2CCCC2)c2ccccc12)c1ccc(C)cc1	x	-4
COc1ccc(C2=NOC(C(=O)Nc3ccc4c(c3)OCO4)C2)cc1OC (centres undefined)	-0.41	-1.9
Cn1cccc1-c1cc2n(n1)CCC(=O)N2CCCC(=O)NCCN1CCCC1	0.56	x
CC(C)Cc1nc(N2CCN(C(=O)c3ccco3)CC2)c(C#N)c2c1COC(C)(C)C2	1.2	0.23
O=C(COc1ccccc1)NC(Cc1c[nH]c2ccccc12)C(=O)O (centres undefined)	x	-2.1
CCCC(NS(=O)(=O)c1cc2c(cc1C)NC(=O)CO2)c1cccs1 (centres undefined)	0.88	x
O=c1c2nnn(Cc3ccccc3F)c2ncn1Cc1cccc(Cl)c1	0.75	-0.27
CCn1c(C)c(C(C)=O)c(N2CCN(c3ccc(OC)cc3)CC2)nc1=S	x	-1.9
COCCOC(=O)C1=C(C)NC2=C(C(=O)C(C(=O)OC)C(C)C2)C1c1ccc(F)cc1 (centres undefined)	-0.11	-1
O=C(Nc1ccc2nc(NS(=O)(=O)c3ccccc3)sc2c1)C1CC1	0.37	x
COc1ccc(CCn2nnnc2C2(c3ccc(C)cc3)CC2)cc1	x	-0.93

Filtered by structure: those above containing a furan ring, fused or not.
SMILES	TAR Tat displ	CDC25B-CDK2 inh
c1ccc2c(-c3csc(-c4ccc5c(c4)OCCO5)n3)coc2c1	x	-2.4
CC(C)Cc1nc(N2CCN(C(=O)c3ccco3)CC2)c(C#N)c2c1COC(C)(C)C2	1.2	0.23

The list goes on.
SMILES	TAR Tat displ	CDC25B-CDK2 inh
O=C(c1cnn(-c2ccc(Cl)cc2)c1C1CCNCC1)N1CCN(c2ncccn2)CC1	-0.28	x
CCc1ccccc1Nc1nc2ccccc2n2nnnc12	-3.5	-2.5
O=C(Nc1ccccc1-c1nc2ccccc2s1)c1ccc2c(c1)OCCO2	x	-0.47
Cc1cc(N2CCN(C)CC2)nc(N2CCN(C(=O)Nc3ccc(F)cc3)CC2)n1	0.23	x
CCC(=O)Nc1nnc(SCc2cc(=O)n3ccsc3n2)s1	-0.44	x
CC(=O)Oc1ccc2c(=O)c(Oc3ccccc3Br)coc2c1	1.2	3.4
CCCCN(CC)S(=O)(=O)c1cc2c(cc1C)NC(=O)CO2	1.8	x
CCOC(=O)C1CCN(S(=O)(=O)c2csc(C(N)=O)c2)CC1	0.92	x
CCCN1CCN(CCCNc2nn3nnnc3c3ccccc23)CC1	0.35	-1.7
CCOC(=O)c1sc(-c2cnccn2)nc1C	x	-2.4
CCOC(=O)c1cc(OC(=O)c2ccco2)n(-c2ccccc2)n1	0.43	-1.2
COCCCNC(=O)c1sc2nc3n(c(=O)c2c1C)CCCCC3	0.87	x
CC(=O)N1c2ccc(S(=O)(=O)N3CCCC3)cc2CC1C(=O)Nc1cc(C)cc(C)c1 (centres undefined)	1	x
CC(C)[C@H](N)C(=O)N[C@H](C(=O)N[C@H](C(=O)O)C(C)C)C(C)C	-0.43	x
CC1CCN(S(=O)(=O)c2cn(CC(=O)NCCc3ccco3)cn2)CC1	-0.74	x
COc1ccc(OC)c(S(=O)(=O)N(CCS(=O)(=O)N2CCNCC2)C(C)C)c1	2.3	x
CCCN(CCC)CCNS(=O)(=O)c1cc(Br)cnc1N	-0.02	-1.3
CCOC(=O)N1CCC2(CC1)OC(=O)C(C)=C2C(=O)NC(C)C	2.4	x
O=c1c2cccnc2n(Cc2cccc(F)c2)c(=O)n1Cc1ccc(F)cc1	-0.42	-0.12
O=c1oc2ccccc2cc1-c1cn2cc(Cl)cc(Cl)c2n1	x	0.33
CCc1ccc(-c2cc(C)no2)cc1S(=O)(=O)N(C)C1CCCCC1	-0.25	x
Cc1nn(C(C)C(=O)NCc2cccs2)c(=O)c2c1sc1ccccc12 (centres undefined)	2.9	-1.6
O=S(=O)(NCCc1csc2nc(-c3cccs3)nn12)c1ccc(F)cc1	-1.4	x
Cc1ccc(-c2n[nH]c3c2cnc2ccc(F)cc23)cc1	1	-0.16

Already shown: an excerpt of the list.
SMILES	TAR Tat displ	CDC25B-CDK2 inh
CC(=O)N1c2ccc(S(=O)(=O)N3CCCC3)cc2CC1C(=O)Nc1cc(C)cc(C)c1 (centres undefined)	1	x
CC(C)[C@H](N)C(=O)N[C@H](C(=O)N[C@H](C(=O)O)C(C)C)C(C)C	-0.43	x
CC1CCN(S(=O)(=O)c2cn(CC(=O)NCCc3ccco3)cn2)CC1	-0.74	x
COc1ccc(OC)c(S(=O)(=O)N(CCS(=O)(=O)N2CCNCC2)C(C)C)c1	2.3	x

Additional records
SMILES	TAR Tat displ	CDC25B-CDK2 inh
CCC(C)NC(=O)c1cc2c(Cl)ccc3c2n1CCO3 (centres undefined)	0.89	x
COC(=O)c1cc(/C=C/C(=O)N(C(=O)NC2CCCCC2)C2CCCCC2)cn1C	x	-1.1
COc1ccc(C2CC(=O)C3=C(C2)NC(=O)CC3c2ccccc2F)cc1OC (centres undefined)	1	0.15
CC1CCCCC1NC(=O)Cn1cc2c(n1)CCCC2 (centres undefined)	x	-0.16
O=C(NCCSCc1c(F)cccc1Cl)c1cccs1	x	0.65
CCC1c2ccc(C)n2CCN1C(=O)Nc1ccc(Cl)cc1 (centres undefined)	-7.8	-2
Cn1c(C(=O)O)c(CC(=O)NCC2CCCO2)c2ccccc21 (centres undefined)	x	-0.02
CCCCC1=NN(C(=O)c2cccc(Br)c2)C(O)(C(F)(F)F)C1 (centres undefined)	x	-1.3
N#CC(C#N)=C/C=C(\Sc1nnnn1-c1ccccc1)c1ccccc1	x	-2.5
CCCN1C(=O)C(O)(CC(=O)c2ccc(C(C)C)cc2)c2cc(Br)ccc21 (centres undefined)	x	-0.29
O=C1CC(c2nc3ccccc3n2Cc2ccccc2)CN1c1ccc(Cl)cc1 (centres undefined)	2.1	-1.5
C=CCNc1nc(Nc2ccccc2)c2cnn(C)c2n1	0.68	x
O=C(O)C1Cc2c([nH]c3ccccc23)CN1 (centres undefined)	x	16*
CCCCCOc1ccc(C2c3c(oc4ccccc4c3=O)C(=O)N2c2nccs2)cc1OC (centres undefined)	0.26	-1
Cc1cc(C)n2nc(CCC(=O)O)nc2n1	1.1	-0.08
COc1ccc(-c2nnn3c2nc(NCc2cccc(OC)c2)c2ccccc23)cc1	3.3	-1.7
CC(=O)Nc1ccc(C2=N/C(=C/c3cn(C(C)=O)c4ccccc34)C(=O)O2)cc1	x	0.27
O=C1CC(c2cc(F)ccc2F)c2c(nc(SCc3ccc(Cl)cc3)[nH]c2=O)N1 (centres undefined)	1	-1.3
NC(=O)COc1ccc(NC(=O)c2nc(-n3cnnc3)ccc2Br)cc1	3.1	x
CC1CCN(S(=O)(=O)N2CCCC(C(=O)Nc3ccc4c(c3)OCO4)C2)CC1 (centres undefined)	0.63	x
Cc1ccc(-c2noc(COc3ccc(Cl)cc3)n2)s1	1.1	x
COc1ccc(-c2noc(NCCCN3CCOCC3)n2)cc1OC	-0.13	x
Cc1ccc(-c2noc(COc3ccc(C)cc3C)n2)cc1	x	-0.73
CC(C)(C)c1ccc2c(c1)CN(Cc1ccccc1)CO2	2.4	-0.58

A draw from above in order of length of the SMILES, smallest number first:
SMILES	TAR Tat displ	CDC25B-CDK2 inh
Cc1cc(C)n2nc(CCC(=O)O)nc2n1	1.1	-0.08
Cc1ccc(-c2noc(COc3ccc(C)cc3C)n2)cc1	x	-0.73
COc1ccc(-c2nnn3c2nc(NCc2cccc(OC)c2)c2ccccc23)cc1	3.3	-1.7
CC1CCN(S(=O)(=O)N2CCCC(C(=O)Nc3ccc4c(c3)OCO4)C2)CC1 (centres undefined)	0.63	x
CC(=O)Nc1ccc(C2=N/C(=C/c3cn(C(C)=O)c4ccccc34)C(=O)O2)cc1	x	0.27

Remaining list, next part
SMILES	TAR Tat displ	CDC25B-CDK2 inh
COc1ccc(CN2C(=O)c3[nH]nc(-c4ccccc4O)c3C2c2ccc(O)cc2)cc1 (centres undefined)	-0.47	0.15
CCOC(=O)C1=C(N)CC(C(=O)OCC)=C(N)C1	x	-0.14
CCOC(=O)c1sc(NC(=O)c2sc(C)nc2C)nc1C	1.2	-1.8
Cc1cccc(C)c1NS(=O)(=O)c1ccc(-c2n[nH]c(C)c2C)s1	0.74	x
CCOC(=O)c1cnn(C(=O)COc2ccc(C(C)(C)C)cc2C(C)(C)C)c1N	x	-0.98
COc1ccc(-c2cn(-c3ccc(Br)cc3)c(=S)[nH]2)cc1	x	-0.76
CCC1CCCCN1CCCNC(=O)c1oc(=O)c2ccccc2c1-c1ccc(C)cc1 (centres undefined)	x	2.1
COc1ccc(CNc2nc3c(S(=O)(=O)c4ccccc4)nnn3c3ccccc23)cc1	0.62	0.41
COCc1cc(C)nc(SCC(=O)Oc2ccccc2)c1C#N	x	-2.1
